# From PubChem
# NPYLR7 ag: activates Aedes aegypti NPYLR7 receptor | HEK293T NPYLR7/Galpha15, GCaMP6s calcium fluorescence | activation, % at 10 µM | actives 0.15% (n = 270,000) | AID 1259423; in the data active means activation above about 40%;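 further: 0% = vehicle and 100% = reference agonist at the receptor; some compounds past the cut are filed as inactive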
# NPYLR7 ag max-min: second read-out of NPYLR7 ag, no call of its own (marks repeat the call); activation, %; measured here: Max-Min RFU normalised activation; some inactives read as strong as hits;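 span of the calcium signal over five minutes; 0% = vehicle and 100% = native peptide agonist; compound fluorescence can raise it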
# An asterisk follows results filed as active.
SMILES,NPYLR7 ag,NPYLR7 ag max-min
COc1ccc2cc(C3CN(Cc4cc(=O)[nH]c(=O)[nH]4)CCO3)ccc2c1 (stereo unspecified),-4,-9
CNCC(=O)N(Cc1ccccc1OC)C(C)C,14,12
CCOC(=O)c1cn(Cc2cc(F)cc(F)c2)nc1S(=O)(=O)N1CCCC(C)C1 (stereo unspecified),-8,-10
CCc1nn(C)c(Cl)c1CN1CCN(Cc2ccc(Cl)cc2)CC1,2,1
COc1cccc(CN2C(=O)C3(SCCN3C(=O)Nc3cccc(F)c3)c3cc(C)ccc32)c1 (stereo unspecified),0,7
CC(OC(=O)C1CC1c1ccco1)C(=O)Nc1ncccn1 (stereo unspecified),4,16
Cc1cc(C)n(-c2ccc(Cl)c(C(=O)NN3C(C)CCCC3C)n2)n1 (stereo unspecified),1,1
COc1ccc(N2CN(C(=O)CN(CC(C)C)C(=O)C(C)(C)C)CC2=O)cc1,12,25
O=C(CNC(=O)C1CC1(c1ccccc1)c1ccccc1)NC12CC3CC(CC(C3)C1)C2 (stereo unspecified),17,8
COc1ccccc1CCN1CCC(CN(C)C(=O)Cn2cccn2)CC1,-8,-9
Cc1ccccc1Nc1nn(CN(C)C2CCS(=O)(=O)C2)c(=S)s1 (stereo unspecified),2,1
CSc1ccc(C(=O)CCC(=O)N2CCC(c3ccc(F)cc3)CC2)cc1,4,-1
COc1cc(N2CCOc3c(cc(-c4cccs4)cc3OC)C2)ncn1,9,-3
COCCNC(=O)c1ccc(CSc2nc(N(C)CCc3ccc(OC)c(OC)c3)cc(C(C)(C)C)n2)cc1,2,-3
CCc1nnc(NC(=O)COc2ccc(F)cc2)s1,11,13
CCn1nnc2c(N3CCN(C(=O)C4CC4)CC3)ncnc21,1,12
O=c1oc2ccc3ccccc3c2cc1-c1nnc(-c2ccccc2O)o1,-4,-7
CN(CCCNC(=O)c1ccc(-n2nc(-c3ccc(Cl)c(Cl)c3)cc2N)cc1)c1ccccc1,-7,-9
CCCCOc1ccc(S(=O)(=O)NC(=O)C2(C)CCN2C(=O)c2ccco2)cc1 (stereo unspecified),0,-2
Cc1ccc(C(=O)O)cc1-c1ccc(/C=N\n2cnnc2)o1,-6,-11
CCC(C(=O)NCCOC)n1c(=O)n(Cc2ccccc2)c(=O)c2ccc(Cl)cc21 (stereo unspecified),7,22
CN(Cc1ccccc1)C(=O)NCCC(=O)NC1(C#N)CCSC1 (stereo unspecified),-6,-6
Cc1nn(C2CCS(=O)(=O)C2)c2nc(-c3ccccc3)cc(C(=O)NCCCc3ccccc3)c12 (stereo unspecified),1,6
CN(Cc1cc(C(C)(C)C)n[nH]1)C(=O)c1cccc(-n2cccn2)c1,9,1
Cc1sc2ncnc(NCC(C)n3cncn3)c2c1C (stereo unspecified),26,6
SMILES,NPYLR7 ag,NPYLR7 ag max-min
COc1ccc2[nH]c3c(c2c1)CCN(C(=O)/C=C/c1cccc(C(F)(F)F)c1)C3COCc1ccccc1 (stereo unspecified),5,-11
Cc1cc(C)c(CN)c(=O)[nH]1,0,-3
CN(CCN1C(=O)CSC1c1ccccc1Cl)C(=O)c1cccs1 (stereo unspecified),2,9
COc1cc(NC(=O)CCC2CCCN(C(=O)C3=CCCCC3)C2)cc(OC)c1 (stereo unspecified),-1,-6
COc1cccc(CNc2nc3cc(-c4cnn(Cc5ccccc5)c4)sc3c(=O)n2C)c1,7,3
CCCCN(CC(=O)N(Cc1ccco1)Cc1cccn1C)C(=O)Nc1ccc(Br)cc1,3,18
CN1C(=O)C2(Nc3cc4ccccc4cc3N2)c2cc(Br)ccc21,6,4
Cc1cc(NC(=O)c2ccccc2F)n(-c2ncnc3c2cnn3-c2ccccc2)n1,4,3
COc1cccc(-c2nn(-c3ccccc3)cc2CN(C)Cc2cc(C)[nH]n2)c1,3,0
Cc1ccc(N2C(=O)c3n[nH]c(C)c3C2c2ccco2)cc1 (stereo unspecified),4,10
COc1ccc(OC)c(C2c3cccn3CCCN2Cc2cccc(C(F)(F)F)c2)c1 (stereo unspecified),-11,-9
COc1ccc(C(C)=O)cc1CN1C(=O)C(C)ON=C1c1ccc2c(c1)CCO2 (stereo unspecified),-4,-2
CC(=O)Oc1c(-c2ccc(NC(=O)c3ccccc3Cl)cc2)c(-c2cccc(F)c2)nn1-c1ccc(C)cc1,6,19
Cc1ccsc1CN(C)Cc1nc2ccsc2c(=O)[nH]1,-8,-8
Cc1csc(C(OC(=O)c2ccc(Cl)s2)C(F)(F)F)n1 (stereo unspecified),4,3
CCn1ncnc1-c1nccn1C(C)c1nccs1 (stereo unspecified),0,0
Cc1cccc(-c2nc3cccc(C)n3c2NC(C)(C)C)c1,-8,0
CN1CCc2cc(C(CNC(=O)c3ccc(Br)o3)N(C)C)ccc21 (stereo unspecified),5,1
CCOC(=O)C1CCN(c2ccc([N+](=O)[O-])cc2[N+](=O)[O-])CC1,-3,-6
CCc1ncc(C(=O)N(Cc2ccsc2)CC2CCCO2)cn1 (stereo unspecified),2,-2
Cn1c(Cl)cnc1CN1CCCN(C(=O)c2ccc[nH]2)CC1,3,-1
Cc1ccc(CN2CCN(C3CCN(c4ccccc4F)CC3)CC2CCO)o1 (stereo unspecified),19,13
CN(CCN1CCCCCC1)C(=O)c1cccc2ccnn12,1,-3
C=CCn1cc(CN(C)Cc2nc(-c3ccncc3)no2)c(C)n1,-5,-7
COc1cc(C=NN2C(=O)CSC2=S)cc(Br)c1O,20,17

# Already shown: an excerpt of the list.
SMILES,NPYLR7 ag,NPYLR7 ag max-min
CCc1ncc(C(=O)N(Cc2ccsc2)CC2CCCO2)cn1 (stereo unspecified),2,-2
Cn1c(Cl)cnc1CN1CCCN(C(=O)c2ccc[nH]2)CC1,3,-1
Cc1ccc(CN2CCN(C3CCN(c4ccccc4F)CC3)CC2CCO)o1 (stereo unspecified),19,13
CN(CCN1CCCCCC1)C(=O)c1cccc2ccnn12,1,-3
C=CCn1cc(CN(C)Cc2nc(-c3ccncc3)no2)c(C)n1,-5,-7
COc1cc(C=NN2C(=O)CSC2=S)cc(Br)c1O,20,17

# More records:
SMILES,NPYLR7 ag,NPYLR7 ag max-min
CCC(C(=O)Nc1nnc(SCc2ccc(C#N)cc2)s1)c1ccccc1 (stereo unspecified),19,25
CCC1SC(c2ccccc2Cl)N(CCNC)C1=O (stereo unspecified),5,0
CC(c1ccc(F)cc1)N(C)CC(=O)Nc1ccc2c(c1)OCO2 (stereo unspecified),-3,-7
Oc1cccc(N=Cc2nc(-c3ccc(Br)cc3)oc2O)c1,-4,-5
CCOc1ccc(-c2nc(-c3ccc(C)cc3)no2)cc1,-9,-13
COc1ccc(OCc2nc(CSCCc3ccccc3)cs2)cc1,22,16
CCC(CC)C(=O)N1CCC2(CC1)CN(Cc1c(C)noc1C)CCN2C,4,3
CCCn1cnnc1CNC1CCC2(CCNCC2)CC1,3,1
COc1ccc(Cl)cc1NC(=O)C1CCCc2ccccc21 (stereo unspecified),4,5
C=CCOc1ccc(C=C2SC(=S)NC2=O)cc1,14,8
O=C(NCc1ccco1)c1ccc(-c2ccc(C3CCCCC3)cc2)s1,10,21
Cc1nccn1C(C)CC(=O)NCC1=CCCCC1 (stereo unspecified),-1,-3
Cc1nc(CC(=O)N(C)Cc2csc(-c3ccccc3)n2)cs1,12,6
CCc1ccccc1NC(=O)CCc1c(C)nn(-c2nc(C)c(C)c(=O)[nH]2)c1C,7,1
OCc1cc(Cl)c2c(c1)OCCO2,5,1
CCOC(=O)CCCSc1nnc(NC(=O)COCc2ccccc2)s1,3,15
CC(C)c1nccn1CCCNC(=O)c1c(O)cccc1O,-1,-6
CCN(CC)S(=O)(=O)c1ccc(C(=O)Nc2c(C)nc3ccc(C)cn3c2=O)cc1,2,0
Cc1ccc(C(=O)NC2CC2)cc1NC(=O)N1CCN(S(=O)(=O)N(C)C)CC1,10,4
CC(C)COc1nc(-c2ccc3c(c2)OCO3)n(-c2ccc(NC(=O)c3ccccc3Br)cc2)n1,-5,-1
CCOC(=O)c1nc(CC(C)n2cccn2)no1 (stereo unspecified),0,12
O=C(CNC(=S)NC(=O)c1cccc([N+](=O)[O-])c1)c1ccccc1,8,10
COCCc1noc(C(C)NC(=O)CC23CC4CC(CC(C4)C2)C3)n1 (stereo unspecified),2,2
Cc1cc(NC(=O)CSc2nc(-c3ccc(Cl)cc3)nc3c2c(=O)n(C)c(=O)n3C)no1,32,27
CCc1c(C(=O)N(Cc2ccco2)CC(F)(F)F)[nH]c(C)c1C(C)=O,1,1

# The last four compounds of the part above come first, to join the parts:
SMILES,NPYLR7 ag,NPYLR7 ag max-min
O=C(CNC(=S)NC(=O)c1cccc([N+](=O)[O-])c1)c1ccccc1,8,10
COCCc1noc(C(C)NC(=O)CC23CC4CC(CC(C4)C2)C3)n1 (stereo unspecified),2,2
Cc1cc(NC(=O)CSc2nc(-c3ccc(Cl)cc3)nc3c2c(=O)n(C)c(=O)n3C)no1,32,27
CCc1c(C(=O)N(Cc2ccco2)CC(F)(F)F)[nH]c(C)c1C(C)=O,1,1
CCOC(=O)N1CCC(N2CCCC(CNC(=O)c3cccs3)C2)CC1 (stereo unspecified),-5,-7
O=C(CSc1ccc(-c2ccncc2)nn1)N1CCCCC1,1,-10
Cc1nnnn1-c1ccc(Cc2nn3c(C(C)C)nnc3s2)cc1,-1,-7
Nc1cc(C(F)(F)F)c(-c2cc(N3CCOCC3)nc(N3CCOCC3)n2)cn1,2,-2
C#CCN(Cc1ccco1)C(=O)CCCc1ccc2[nH]c(=O)[nH]c2c1,2,0
COCCNC(=O)c1nc(Cn2c(C(F)F)nc3ccccc32)no1,0,-3
CC(Sc1nnc(NC2CCCCC2)s1)C(N)=O (stereo unspecified),0,4
COc1ccccc1OCCn1c(CN(C)C(=O)c2ccco2)nc2ccccc21,0,8
COCCS(=O)(=O)c1ncc(CN2CCc3sccc3C2)n1Cc1ccccc1,17,7
COc1cc(Cl)c(C(=O)N2CCOC(COCc3cccc(C)c3)C2)cc1OC (stereo unspecified),8,7
Cc1ccc(OC(C)CNC(=O)N(C)Cc2ccncc2)cc1 (stereo unspecified),-1,-1
O=C1OCCN1CCNC1CCC2(CCNCC2)CC1,-7,-17
CSc1ccc(NC(=O)NCCN2CCN(c3nc(Cc4ccc(F)cc4)ns3)CC2)cc1,21,27

# Whole records from above. Order of screens: NPYLR7 ag | NPYLR7 ag max-min
# `COCCNC(=O)c1nc(Cn2c(C(F)F)nc3ccccc32)no1` is listed with 0 | -3
# `O=C1OCCN1CCNC1CCC2(CCNCC2)CC1` is listed with -7 | -17
# `COCCS(=O)(=O)c1ncc(CN2CCc3sccc3C2)n1Cc1ccccc1` is listed with 17 | 7

# This is a subset; the hit share may differ from the screen's.
